GALR2 ag: activates the human galanin receptor 2. O43603. GALR2-expressing cells, agonist activation read-out. activation, %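 (tested at 5 µM)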. hit rate 0.48% among 140,000. AID 803;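 active means above mean plus 3 SD of all compounds, about 5% in these data, not always enough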;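 further: 0% = vehicle buffer wells and 100% = reference agonist at full effect; tested in CHO reporter cells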
Target sequence (O43603 whole entry, looked up): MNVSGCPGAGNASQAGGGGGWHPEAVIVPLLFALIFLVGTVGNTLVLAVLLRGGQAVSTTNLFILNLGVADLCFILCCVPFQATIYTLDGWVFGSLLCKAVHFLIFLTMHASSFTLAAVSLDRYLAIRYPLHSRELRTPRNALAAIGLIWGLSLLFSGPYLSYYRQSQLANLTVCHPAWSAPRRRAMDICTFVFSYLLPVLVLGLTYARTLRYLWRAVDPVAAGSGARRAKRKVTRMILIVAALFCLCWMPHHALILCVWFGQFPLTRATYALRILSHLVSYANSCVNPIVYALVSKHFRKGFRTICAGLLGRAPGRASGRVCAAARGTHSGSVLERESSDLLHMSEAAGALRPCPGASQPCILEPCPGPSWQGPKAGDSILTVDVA
RGS16-Gao: modulates binding between human RGS16 and Galphao | O15492+P09471 | bead-based flow cytometry RGS16-Galphao binding, fluorescence; actives lie on both sides | hit rate 0.38% among 220,000 | binding response (% of control), % at 10 µM;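 active means below 25% or above 175%, edge rows of some plates excepted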;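 further: Galphao activated by GDP with aluminum fluoride before binding; 100% = wells without compound and 0% = beads without RGS; some results beyond the cut were filed as inactive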
Target sequence (O15492 whole entry, looked up): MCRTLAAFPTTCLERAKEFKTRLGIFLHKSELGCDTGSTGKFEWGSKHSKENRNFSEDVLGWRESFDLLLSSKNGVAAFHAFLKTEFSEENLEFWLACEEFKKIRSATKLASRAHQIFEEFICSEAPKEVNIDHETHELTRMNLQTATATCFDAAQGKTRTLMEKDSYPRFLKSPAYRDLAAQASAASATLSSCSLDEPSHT
Target sequence (P09471 whole entry, looked up): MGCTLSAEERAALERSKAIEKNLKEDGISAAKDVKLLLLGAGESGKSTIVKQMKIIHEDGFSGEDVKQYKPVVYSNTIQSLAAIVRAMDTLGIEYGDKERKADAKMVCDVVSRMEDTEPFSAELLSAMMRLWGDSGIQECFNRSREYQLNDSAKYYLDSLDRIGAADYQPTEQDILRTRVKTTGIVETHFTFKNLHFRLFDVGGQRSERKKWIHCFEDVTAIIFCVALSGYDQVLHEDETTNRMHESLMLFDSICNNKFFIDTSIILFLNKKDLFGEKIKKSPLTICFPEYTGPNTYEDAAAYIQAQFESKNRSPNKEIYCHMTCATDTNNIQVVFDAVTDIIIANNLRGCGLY
HSV replic up: HSV replication enhancement. HSV replication augmentation in cells, fold increase. maximum fold increase. AID 1956. hit rate 0.005% among 220,000;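 active means peak rise of 1.5-fold or more in the series; tested in PC3 cells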;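 further: first round at 10 µM; read as green reporter fluorescence; hits show the peak of a series up to 25 µM; 1 = signal of infected wells without compound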
PKD1 kinase inh: blocks activity of human protein kinase D1; Q15139; PKD1 kinase fluorescence polarization assay; inhibition, %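 (about 10 µM by stock and volumes)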; hit rate 0.056% among 200,000; AID 797;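 active means inhibition of 50% or more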;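 further: controls were vehicle for no effect and a reference inhibitor for full effect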
Insulin prom inh: TRM-6 insulin promoter activity inhibition; TRM-6 cells (human fetal islet line), insulin promoter-eGFP reporter, imaging; reporter expression induced with tamoxifen; inhibition, % at 2 µM; hit rate 0.9% among 130,000; AID 1273;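 active means inhibition above the mean plus 3 SD, with well images judged a real hit on visual review, cut at about 60% in these data, passing the limit was not always enough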
Insulin prom inh cell count: second read-out of Insulin prom inh, no call of its own (marks repeat the call); normalized cell count, %; measured here: cell count, toxicity; reference of the scale not given here;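 cells exposed to compound for 48 h; stained nuclei by imaging scaled within each plate; lower means fewer cells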
HSV replic up primary fold: also measured in HSV replic up; calls as there; fold increase; compound at 10 µM; measured here: primary screen fold increase 10 uM; tested in PC3 cells;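 GFP signal in the first replicate; 1 = infected wells without compound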
Numbers without * were called inactive; i = inactive; . = not tested or not shown.

nr	Compound	Insulin prom inh cell count	HSV replic up	HSV replic up primary fold	GALR2 ag	Insulin prom inh	RGS16-Gao	PKD1 kinase inh
1	Cc1ccc(S(=O)(=O)c2cn(Cc3ccc(F)cc3)c3cc4c(cc3c2=O)OCO4)cc1	55	i	0.97	-2.9	-19	60	-3
2	CC(=O)c1cc(C#N)c(Oc2ccccc2)nc1C	.	i	0.88	-0.1	.	.	-2
3	Cc1[nH]c(-c2ccc3c(c2)OCO3)nc1C(=O)O	.	i	1	-3.2	.	102	2
4	Cc1ccc2c(c1)-c1c(cnn1CC(=O)NC(C)CCc1ccco1)CO2 (centres undefined)	.	i	0.89	-0.9	.	103	-6
5	COc1ccc(NC2=CC(=O)CC(C)(C)C2)cc1OC	.	i	0.88	-3.8	.	102	7
6	CN(c1ccccc1C(=O)NCc1ccccn1)S(C)(=O)=O	182	i	1	1.9	-21	102	2
7	CCc1ccc(CN2CCN(C(=O)c3cccc(OC)c3OC)CC2)cc1	124	i	0.98	-1.8	44	70	-7
8	CCOC(=O)C1=C(c2ccccc2)NC(SCC(=O)Nc2cccc(C)c2)=C(C#N)C1c1ccco1 (centres undefined)	.	i	1.2	-2.8	.	95	-5
9	CN(CC(=O)Nc1ccc(F)c(F)c1F)c1ncnc2sccc12	.	i	0.77	.	.	100	-1
10	CN(C(=O)COC(=O)c1ccc2c(=O)n3c(nc2c1)CCC3)c1ccccc1	77	i	1.1	-0.5	-50	104	7
11	COc1ccc(OC)c(-c2cc(C(=O)Nc3sc4c(c3C#N)CCC(C)C4)c3ccccc3n2)c1 (centres undefined)	71	i	1	-1.9	-9	102	12
12	COc1ccc(S(=O)(=O)NCc2ccc(C(=O)N3CCN(c4ccccn4)CC3)cc2)cc1	.	i	0.8	-0.4	.	118	9
13	CNC(=O)OCCSCCS(=O)(=O)c1ccc(Cl)cc1	.	i	1	.	.	92	.
14	CCS(=O)(=O)N1CCN(C(=O)c2ccc(-c3ccccc3)cc2)CC1	.	i	0.89	-0.7	.	96	2
15	CN(C)C(=O)N1CCCC(C(=O)NCc2ccccc2)C1 (centres undefined)	84	i	1	-1.8	-9	100	-15
16	COC(=O)C1=C(C)N(C)C(=O)NC1c1ccc(O)c(Cl)c1 (centres undefined)	123	i	0.96	.	-88	103	2
17	CCN(CC)CCNC(=O)c1ccc(NC(=O)c2c(F)cccc2Cl)cc1	.	i	1	.	.	100	0
18	Cc1ccc(Cn2cc(SCC(N)=O)c3ccccc32)cc1	158	i	0.94	.	6	100	-2
19	CC(C)NS(=O)(=O)c1ccc(CCC(=O)NCc2ccncc2)cc1	123	i	0.96	.	36	102	0
20	CCOc1ccc(C(=O)NCC2CCCO2)cc1OCC (centres undefined)	.	i	1	.	.	103	-7
21	CCSc1nnc(NC(=O)CCNS(=O)(=O)c2cc(Br)cnc2N)s1	142	i	0.94	-1.1	-10	87	-7
22	COc1ccc(-c2ccc(/C=N/NC(=O)Cc3nnc(N)s3)o2)cc1Cl	.	i	0.85	.	.	100	.
23	CC(C)C1Cc2nc(Cl)c(C#N)cc2CO1 (centres undefined)	.	i	1.1	.	.	98	.
24	COc1ccc(-n2c(=O)c3c4c(sc3n3c(C)nnc23)COC(C(C)C)C4)cc1 (centres undefined)	125	.	.	-0.7	3	.	-4
25	O=C(Oc1ccc(-c2csnn2)cc1)c1cccs1	.	i	1.1	.	.	103	.
26	CCOC(=O)COc1c(OC)cc(Cl)cc1C1Nc2ccccc2C(=O)N1c1cccc(C)c1 (centres undefined)	138	i	0.92	-2.6	-16	104	4
27	S=C(NCCCN1CCOCC1)Nc1ccc(Cl)cc1	118	i	0.95	0.7	15	77	0
28	O=C(Nc1ccc2c(c1)Cc1ccccc1-2)c1ccncc1	141	i	0.86	-1.1	23	108	-3
29	O=C(Oc1ccc([N+](=O)[O-])cc1)c1cccnc1	101	i	0.97	-1.2	41	110	-9
30	Cc1ccc(Cc2c(C)nc3nc(SCC(=O)NCCN4CCOCC4)nn3c2C)cc1	51	i	1	25*	4	99	-7

Sorted by length of the SMILES (highest first): part of the list above.
nr	Compound	Insulin prom inh cell count	HSV replic up	HSV replic up primary fold	GALR2 ag	Insulin prom inh	RGS16-Gao	PKD1 kinase inh
26	CCOC(=O)COc1c(OC)cc(Cl)cc1C1Nc2ccccc2C(=O)N1c1cccc(C)c1 (centres undefined)	138	i	0.92	-2.6	-16	104	4
24	COc1ccc(-n2c(=O)c3c4c(sc3n3c(C)nnc23)COC(C(C)C)C4)cc1 (centres undefined)	125	.	.	-0.7	3	.	-4
22	COc1ccc(-c2ccc(/C=N/NC(=O)Cc3nnc(N)s3)o2)cc1Cl	.	i	0.85	.	.	100	.
21	CCSc1nnc(NC(=O)CCNS(=O)(=O)c2cc(Br)cnc2N)s1	142	i	0.94	-1.1	-10	87	-7

(continued)
nr	Compound	Insulin prom inh cell count	HSV replic up	HSV replic up primary fold	GALR2 ag	Insulin prom inh	RGS16-Gao	PKD1 kinase inh
31	CC1(C)C2CCC1(CS(=O)(=O)Nc1ccc(S(=O)(=O)NC3CCCCC3)cc1)C(=O)C2 (centres undefined)	.	i	1	0.0	.	108	3
32	CCC(=O)Nc1nnc(SCC(=O)N2c3ccccc3CC2C)s1 (centres undefined)	150	i	1.1	-0.8	47	84	-17
33	Cc1cc(C)cc(-n2nnnc2SCC(=O)Nc2nc(-c3ccc(Cl)cc3)cs2)c1	.	i	0.92	-1.5	.	99	-7
34	CCOc1cccc(-c2nnc3sc(COc4ccc(OC)cc4)nn23)c1	132	i	1.2	-1.3	-21	98	-1
35	COCCNC(=O)CN(CC1CCCO1)C(=O)CCC(=O)Nc1ccccn1 (centres undefined)	.	i	1.1	-0.6	.	101	-11
36	CC(=O)NNC(=O)CN1C(=O)/C(=C/c2ccccc2)SC1=S	.	i	0.92	.	.	101	.
37	COc1ccc(CNC(=O)CSc2nnnn2-c2ccccc2)cc1	108	i	0.9	-0.9	-4	94	-3
38	O=C(O)c1ccccc1NS(=O)(=O)c1cccc(C(F)(F)F)c1	77	i	0.95	-1.0	-3	98	2
39	CCOC(=O)c1c(C#N)c(SCC(=O)Nc2ccc(OC)cc2)nc2c1CN(CC)CC2	135	i	0.97	67*	-88	103	-9
40	COc1ccc(CCNC(=O)c2nnn(-c3ccc4c(c3)OCCO4)c2N)cc1OC	131	i	1	1.0	-26	106	-1
41	CCOC(=O)/C(=N/Nc1ccc(C)cc1)S(=O)(=O)c1ccc(Cl)cc1	1	i	1	-1.1	-191	109	-1
42	CCN1CCN(Cc2cc(=O)oc3cc4c(cc23)CCC4)CC1	.	i	0.92	-4.0	.	102	5
43	Cc1ccc(NS(=O)(=O)c2cccc(C(=O)Nc3c(C)n(C)n(-c4ccccc4)c3=O)c2)cc1	.	i	0.83	.	.	99	.
44	Cc1nn(C)c(C)c1S(=O)(=O)N1CCC(C(=O)NC2CCCCCC2)CC1	.	i	0.97	-0.6	.	103	-11
45	Cc1ccc(S(=O)(=O)N2CCCCC2)cc1NC(=O)CSc1ncnc2ccccc12	67	i	0.76	0.4	23	99	-4
46	COCCN(CCOC)c1ncc(Cl)c(C(=O)c2c(C)cc3ccccn23)n1	.	i	0.91	-1.7	.	101	-3
47	CCN1CCN(c2cc(C)c3cc(NC(=O)c4cncc(Br)c4)ccc3n2)CC1	86	.	.	-2.2	-7	103	8
48	c1ccc2c(N3CCCCC3)ncnc2c1	82	i	0.98	-1.8	-20	99	-9
49	COc1cc(/C=C(/C#N)C(=O)c2c(C)[nH]c3ccccc23)ccc1OCC#N	.	i	1	.	.	105	.
50	Cc1nnc(SCC(=O)Nc2nccs2)n(N)c1=O	.	i	0.94	.	.	98	0

Quoted from the listing.
RGS16-Gao with cpd 48 is entered as 99
GALR2 ag with cpd 47 is entered as -2.2
HSV replic up primary fold with cpd 49 is entered as 1

The listing picks up; the 3 compounds before the break are reprinted first.
nr	Compound	Insulin prom inh cell count	HSV replic up	HSV replic up primary fold	GALR2 ag	Insulin prom inh	RGS16-Gao	PKD1 kinase inh
48	c1ccc2c(N3CCCCC3)ncnc2c1	82	i	0.98	-1.8	-20	99	-9
49	COc1cc(/C=C(/C#N)C(=O)c2c(C)[nH]c3ccccc23)ccc1OCC#N	.	i	1	.	.	105	.
50	Cc1nnc(SCC(=O)Nc2nccs2)n(N)c1=O	.	i	0.94	.	.	98	0
51	COc1ccc(CCNc2nc(-c3ccc(NC(C)=O)cc3)cs2)cc1OC	78	i	0.94	.	31	101	2
52	CCOC(=O)Cc1[nH]nc2c1C(c1ccsc1)C(C#N)=C(N)O2 (centres undefined)	121	i	1	.	27	104	9
53	CC(C)C(NC(=O)Cc1ccccc1[N+](=O)[O-])C(C)C	.	i	1.1	-1.0	.	113	5
54	CCCCn1c(-c2ccco2)nc2oc3ccccc3c(=O)c2c1=O	.	i	1.1	.	.	93	.
55	CN(C)C(CNC(=O)CCCOc1ccccc1)c1ccco1 (centres undefined)	57	i	1	-0.1	22	189	2
56	COC(=O)Sc1nnc(-c2ccc(Br)cc2)o1	100	i	0.88	-4.0	19	94	0
57	C/C(N)=C(/C#N)C(=O)COC(=O)c1ccccc1Cc1ccccc1	108	i	1.1	.	-42	100	-3
58	Cc1ccc(S(=O)(=O)N2CCCCC2)cc1NC(=O)CSc1ccc2c(c1)OCCO2	.	i	1.1	0.7	.	99	7
59	CCOC(=O)N1CCN(C(=S)NC(=O)c2ccc(F)c(F)c2)CC1	.	i	1	.	.	113	-8
60	O=C(COc1ccc2c(c1)OCO2)Nc1ccccc1F	79	i	1	.	53	101	6
61	CCOc1ccc(NC(=O)NCC2CCN(c3ccc(OC)cc3)C2)cc1 (centres undefined)	96	i	1	-2.9	17	103	-10
62	Cc1cc(C)cc(N2C(=O)CC(Sc3ncn[nH]3)C2=O)c1 (centres undefined)	.	i	1.1	.	.	161	6
63	O=C1C(Nc2ccccc2)=C(NS(=O)(=O)c2ccccc2)C(=O)c2ccccc21	102	i	1	-0.9	32	100	-7
64	CCCCNC(=S)Nc1ccc(SC(F)F)cc1	88	i	0.96	.	0	104	1
65	CC(C)CNC(=O)CCCc1c[nH]c2ccccc12	19	i	1.2	-3.0	57	105	4
66	Cc1ccc(SCc2cc(=O)[nH]c(Nc3nc(C)c4ccc(C)cc4n3)n2)cc1	71	i	1.1	-0.1	10	98	6
67	COc1ccc(N(C(C)C(=O)Nc2cccnc2)S(C)(=O)=O)cc1 (centres undefined)	.	i	0.95	.	.	105	-6
68	COCCNC(=O)c1cn(C(C)c2ccccc2F)nn1 (centres undefined)	.	i	0.85	.	.	101	.
69	CCOCCN1CCN(c2c3c(nc4cc(-c5ccc(F)cc5)nn24)CCC3)CC1	.	i	1.1	0.5	.	104	0
70	CC(C)c1ccc(O)c(NC(=O)c2ncn[nH]2)c1	54	i	0.86	-0.2	64	105	7
71	CC(C)CNC(=S)Nc1ccc(Oc2ccccc2)cc1	137	i	0.99	-3.0	35	91	6
72	CN(C(=O)COC(=O)c1cc([N+](=O)[O-])ccc1N1CCCC1)C1CCS(=O)(=O)C1 (centres undefined)	162	i	1	.	-37	103	-5
73	COCc1c(N)c(C)nc(Cl)c1C#N	110	i	0.97	.	-11	98	-4
74	NC(=O)c1ccccc1NS(=O)(=O)c1ccccc1	125	i	1.1	-2.1	0	99	-3
75	CCCCN(CCCC)C(=O)c1cc2ccccc2c(=O)o1	121	i	1	-0.5	-45	107	-4
76	COC(=O)CNC(=O)c1ccccc1C	91	i	1	-4.8	17	98	-2
77	CCNC(=S)Nc1ccc(Cl)c(C(F)(F)F)c1	149	i	0.94	0.6	57	154	-9
78	CCN(CC)S(=O)(=O)c1ccc(C)c(NC(=O)CSc2ncc(C(F)(F)F)cc2Cl)c1	133	i	0.9	-0.3	-79	106	1
79	Cc1nc(N2CCCCC2C)c2c(C)c(C(=O)Nc3cccc(C(F)(F)F)c3)sc2n1 (centres undefined)	68	i	0.97	.	0	105	-3
80	CCOC(=O)c1nnn(-c2nonc2N)c1CSc1ccccn1	.	i	0.98	-1.1	.	101	-10

Screening data deposited in PubChem BioAssay by several laboratories.
